Source: PubChem
MenB inh: blocks the Mycobacterium tuberculosis MenB enzyme. MenB enzyme assay, absorbance read-out; some hits fall short of the stated cut. inhibition, %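 (about 12 µg/mL by stock and volumes)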. hit rate 0.43% among 100,000;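 active means mean of two replicates above 30%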;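 further: 0% = no compound and 100% = wells with inactive enzyme; the first replicate is given; strong numbers were not always called active; inactives centre near -10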
MbtI inh: MbtI salicylate synthase inhibition | inhibition, %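 (about 17 µg/mL by stock and volumes)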 | purified MbtI enzyme, fluorescence intensity read-out | hit rate 0.89% among 100,000 | P9WFX0;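 active means above 50% in both replicates, above 80% if mildly self-fluorescent; inactive means the rest, strongly fluorescent compounds included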;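 further: 0% = mean of negative and 100% = mean of positive controls; one replicate is shown; some compounds called inactive have numbers as strong as hits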
Target sequence (P9WFX0 whole entry, looked up): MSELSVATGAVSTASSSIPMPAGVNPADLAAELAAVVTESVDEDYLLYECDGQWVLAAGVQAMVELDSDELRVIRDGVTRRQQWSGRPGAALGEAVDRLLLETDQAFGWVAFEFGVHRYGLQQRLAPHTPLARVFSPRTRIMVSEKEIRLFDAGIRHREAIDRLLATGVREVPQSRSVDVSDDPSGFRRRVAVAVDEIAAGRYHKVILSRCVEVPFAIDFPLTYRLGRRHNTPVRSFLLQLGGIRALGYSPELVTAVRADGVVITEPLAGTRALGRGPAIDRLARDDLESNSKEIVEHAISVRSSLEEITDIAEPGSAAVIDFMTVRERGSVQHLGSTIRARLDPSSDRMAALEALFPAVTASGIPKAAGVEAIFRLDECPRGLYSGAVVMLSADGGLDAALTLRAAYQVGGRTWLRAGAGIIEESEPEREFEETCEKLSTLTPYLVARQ
PV pol inh: poliovirus RNA polymerase inhibition. poliovirus polymerase elongation, fluorescence polarization; stronger effect = lower value. % elongation, % (compound at 16.7 µg/mL). hit rate 0.66% among 150,000. AID 588519; in the data active means % elongation below about 90%; further: some results filed as inactive read as strong as hits
Target sequence (P03300 1749-2209 limits assumed): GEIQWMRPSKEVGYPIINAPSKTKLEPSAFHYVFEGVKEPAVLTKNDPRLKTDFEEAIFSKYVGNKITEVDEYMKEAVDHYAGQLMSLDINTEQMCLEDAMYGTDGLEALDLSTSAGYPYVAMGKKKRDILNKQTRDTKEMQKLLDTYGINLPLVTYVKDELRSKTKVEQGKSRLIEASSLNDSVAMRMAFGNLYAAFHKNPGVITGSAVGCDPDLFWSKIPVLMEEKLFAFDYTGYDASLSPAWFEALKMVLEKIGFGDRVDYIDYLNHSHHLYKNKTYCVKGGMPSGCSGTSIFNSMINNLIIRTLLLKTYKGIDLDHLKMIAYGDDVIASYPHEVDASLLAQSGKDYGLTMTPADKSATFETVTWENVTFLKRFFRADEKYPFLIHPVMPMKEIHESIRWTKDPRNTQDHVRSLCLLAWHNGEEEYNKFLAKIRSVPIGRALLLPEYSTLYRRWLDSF
PV pol inh intensity: also measured in PV pol inh; calls as there; % elongation; measured here: total intensity read-out; formula for this scale not given here;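 total fluorescence in place of polarization; lower means less elongation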
* marks the source's active call; other numbers are inactive results; i = inactive; . = not tested or not shown.

| Molecule | MenB inh | MbtI inh | PV pol inh | PV pol inh intensity |
| --- | --- | --- | --- | --- |
| O=C(CCc1nc(-c2ccccc2)no1)NC1CCCC1 | -24 | -2 | 101 | 101 |
| CC1=CS(=O)(=O)CC1 | -40 | -8 | 104 | 103 |
| Cn1nnc(NC(=O)COc2ccccc2)n1 | 25 | -3 | 104 | 101 |
| CC(C)(C)c1ccc(C(=O)Oc2ccccc2CCC(=O)O)cc1 | 8 | 3 | 102 | 105 |
| CCCn1nnc(NC(=O)Cc2ccccc2)n1 | -39 | -12 | 102 | 105 |
| COc1ccc(N2C(=O)C3CC=CC(C)C3C2=O)cc1 (stereo not drawn) | -14 | -3 | 102 | 102 |
| COc1ccccc1CNCCN1CCOCC1 | 38* | -4 | 100 | 103 |
| CC(C)C1NC(=O)CNC1=O (stereo not drawn) | -1 | -13 | 102 | 104 |
| COC(=O)c1cn(Cc2ccc(Cl)cc2)cc(F)c1=O | -6 | -4 | 103 | 104 |
| O=C(O)COc1ccc(OCc2ccccc2)cc1 | . | -3 | 100 | 102 |
| O=c1[nH]c(CN2CCCC2)nc2scc(-c3ccc(Cl)cc3)c12 | . | -3 | 104 | 109 |
| Cc1cc(S(=O)(=O)N2CCCc3ccccc32)ccc1OCC(N)=O | -57 | -3 | 103 | 105 |
| COc1ccc(-c2nnc(SCC(=O)NCCCc3ccccc3)n2N)cc1 | 10 | 3 | 108 | 109 |
| CNCc1ccc(F)cc1 | -41 | -21 | 100 | 92 |
| c1cnc(NCC2COc3ccccc3O2)nc1 (stereo not drawn) | -15 | -13 | 104 | 110 |
| O=C(Nc1ccccc1N1CCOCC1)c1ccccc1 | 9 | -3 | 103 | 101 |
| O=C(Nc1nccs1)c1cccc(C(=O)Nc2nccs2)c1 | -18 | -7 | 100 | 101 |
| COc1ccc(NC(=S)N2CCC(c3nc4ccccc4o3)CC2)c(OC)c1 | -29 | -20 | 100 | 102 |
| O=C(O)CC(C(=O)Nc1ccc2ccccc2c1)N1CCOCC1 (stereo not drawn) | -14 | 8 | 99 | 106 |
| O=C(CN(Cc1ccc2c(c1)OCO2)C(=O)c1cnsn1)NC1CCCC1 | -27 | -14 | 103 | 103 |
| COc1cc(C)c(S(=O)(=O)Nc2ccc3nc(C)sc3c2)cc1C(C)C | -48 | . | 99 | 105 |
| O/N=C(\Cc1ncc[nH]1)c1ccccc1 | -20 | -2 | 108 | 118 |
| Cn1ccnc1C(=O)c1cccs1 | . | -5 | 103 | 102 |
| CC1(C)CC(=O)C=C(Nc2ccccc2F)C1 | -15 | 24 | 102 | 100 |
| Cc1nc2cc3c(cc2n1CC(=O)NCC(F)(F)F)OCCO3 | -15 | 0 | 113 | 122 |
| COc1ccc(/C=C/C(=O)NCC2(c3ccccc3)CCOCC2)cc1 | -10 | -7 | 100 | 99 |
| O=S(=O)(c1ccccc1)c1nnn2c1nc(NC1CCCC1)c1sccc12 | -18 | 113 | 103 | 101 |
| COc1ccc(CNC(=O)CN2CCN(Cc3ccccc3)C2=O)cc1 | 3 | -4 | 102 | 104 |
| O=C(O)c1nc(-c2ccccc2)cc(-c2ccccc2)n1 | 35* | 15 | 100 | 106 |
| CCCn1c(=S)[nH]c2cc(C(=O)N3CC(C)CC(C)C3)ccc2c1=O (stereo not drawn) | -18 | -6 | 101 | 102 |
| CC(OC(=O)Cc1c[nH]c2ccccc12)C(=O)N1CCc2ccccc21 (stereo not drawn) | -6 | -8 | 103 | 107 |
| C/C=C1/C[N+]2(C)CCC34C(=C(C=O)[C@H]1C[C@@H]32)Nc1ccccc14 (stereo partly drawn) | -12 | -12 | 102 | 99 |
| O=C(N=C=S)c1ccc2ccccc2c1 | -67 | i | 75* | 79* |
| Cc1cc(C)nc(SCC(=O)c2ccc3c(c2)OCCO3)n1 | -11 | 62 | 104 | 103 |
| CCCCn1nnnc1CSCC(=O)Nc1ccc2c(c1)OCCO2 | -50 | 1 | 94 | 70 |
| COc1ccc(OCC(O)CN(Cc2ccccc2)Cc2ccccc2)cc1 (stereo not drawn) | -11 | 5 | 100 | 103 |
| COc1ccc(C(CCN2C(=O)CCC2=O)C2CCOC(C)(C)C2)cc1 (stereo not drawn) | -39 | 0 | 101 | 102 |
| CC(=O)n1c(C=NCc2ccccc2)c(O)c2ccccc21 | -20 | 6 | 100 | 105 |
| Cc1ccc(-n2nc3c4ccccc4n(C)c3cc2=O)cc1 | -4 | -3 | 101 | 102 |
| COc1ccc(CSCC(=O)NCCN2CCOCC2)cc1 | -6 | 7 | 100 | 103 |

(next part)
Fields: MenB inh | MbtI inh | PV pol inh | PV pol inh intensity
CC(C)(CO)NS(=O)(=O)c1csc(C(=O)Nc2ccccc2)c1
  -15 | 3 | 105 | 104
COc1cccc(NC2=Nc3cccc4cccc2c34)c1
  -125 | 3 | 112 | 165
Cc1c(OCc2ccc(Cl)c(Cl)c2)ccc(C(=O)/C=C/N(C)C)c1O
  -8 | -4 | 110 | 112
Cc1csc(N(C(=O)C2CCC2)c2ccccc2)n1
  -22 | -8 | 106 | 99
CC(=O)O[C@H]1C[C@@]2(C)[C@@H](C[C@@H](O)C3[C@]2(C)CC[C@H]2[C@H](C)[C@H](O)CC[C@]32C)/C1=C(/CCC=C(C)C)C(=O)O (stereo partly drawn)
  4 | 0 | 100 | 100
CC(C)CN1C(=O)CSC1c1cn(-c2ccccc2)nc1-c1cc2ccccc2o1 (stereo not drawn)
  -38 | 102 | 101 | 94
Cc1noc(C)c1COc1ccc(C(=O)OC(C)C(=O)Nc2ccc(S(=O)(=O)N3CCOCC3)cc2)cc1 (stereo not drawn)
  5 | -24 | 98 | 99
CCNc1nc(=S)nc(NCc2ccccc2)[nH]1
  -43 | 0 | 99 | 99
O=C(N/N=C/c1ccc(Br)s1)C1CC12CCC2 (stereo not drawn)
  -36 | -3 | 102 | 103
CC(C)CCN1C(=O)CC(N2CCN(S(=O)(=O)c3cccc(Br)c3)CC2)C1=O (stereo not drawn)
  -1 | 13 | 106 | 104
CCOC(=O)C1=C(C)NC(C)=CC1=C(C#N)C#N
  -21 | 8 | 103 | 101
COc1ccc(Cn2cc(-c3ccccc3)nn2)cc1
  -5 | . | 105 | 104
Cc1ccc(C(=O)NC2CCOc3ccccc32)o1 (stereo not drawn)
  -21 | 0 | 105 | 88
CC(=O)Nc1ccc2c(CSc3nnc(-c4ccoc4C)n3-c3ccccc3)cc(=O)oc2c1
  -4 | 90 | 98 | 104
CC(=O)NC(=S)Nc1cccc(C)c1
  -16 | 6 | 101 | 108
Cc1cc(Nc2ncc(Cl)cc2Cl)n[nH]1
  18 | 8 | 101 | 97
CCOC(=O)NC(=S)N1CCCC1
  1 | -17 | 107 | 111
Cc1cc(C)cc(C(=O)NCCCN2CCOCC2)c1
  5 | 4 | 100 | 100
N#C/C(=C/N1CCOCC1)c1ccccc1
  3 | 26 | 99 | 103
CN(C)NC(=S)NC1CCS(=O)(=O)C1 (stereo not drawn)
  18 | -1 | 100 | 102
Cc1cccc(NC(=O)c2cc3ccccc3oc2=O)c1
  -13 | . | 105 | 102
Cc1cc(=O)n2c(c1C#N)SC1CCCCC12O (stereo not drawn)
  -4 | -3 | 104 | 102
Cc1ccc(C(=O)NC2CCCCNC2=O)cc1C (stereo not drawn)
  -8 | 11 | 103 | 103
C=CCSc1nc2c(c(=O)[nH]1)C(c1ccncc1)C(C(=O)OC)=C(C)N2 (stereo not drawn)
  -4 | 12 | 100 | 101
COc1cc(C2c3c(oc4ccccc4c3=O)C(=O)N2CCCOC(C)C)cc(Br)c1O (stereo not drawn)
  16 | -11 | 100 | 104
O=C(O)c1ccc(CNCc2ccc(F)cc2)s1
  11 | -6 | 100 | 103
O=C(Nc1ccc2nc(CN3CCCCC3)[nH]c2c1)c1cccs1
  -48 | 15 | 103 | 97
CCCCn1c(=O)c(C#N)cc2c(=O)n3ccccc3nc21
  -45 | 106 | 103 | 106
COc1ccc(C2=NN(C(C)=O)C(c3ccccc3)C2)cc1OC (stereo not drawn)
  -17 | 105 | 101 | 98
C#CCn1c(C(C)Oc2ccccc2)nc2ccccc21 (stereo not drawn)
  -17 | 2 | 101 | 105
COc1cc(SC)ccc1C(=O)NC1CC1
  5 | . | 103 | 109
[N-]=[N+]=CC(=O)OCC(N)C(=O)O (stereo not drawn)
  0 | -9 | 99 | 102
CCOC(=O)c1oc2ccccc2c1COC(=O)c1cccs1
  3 | -5 | 99 | 100
CN1CCN(C(=O)c2ccc(N(C)S(C)(=O)=O)cc2)CC1
  -40 | -9 | 106 | 100
O=C(COC(=O)Cc1ccc(Cl)cc1Cl)NC1CCCCC1
  . | -8 | 101 | 105
CC1(C)Oc2nc3ccccc3n2/C1=C\C#N
  -60 | 0 | 100 | 103
CCOC(=O)C(C(=O)Nc1ccc(N(CC)CC)cc1)C1CCCCC1 (stereo not drawn)
  -16 | 11 | 103 | 93
O=C(c1cccnc1Nc1ccccc1F)N1CCCCC1
  39* | 8 | 100 | 100
O=C1NC(=Nc2ccccc2)c2ccccc21
  . | -11 | 102 | 103
O=C(O)c1ccccc1COc1ccccc1Cl
  -5 | -5 | 100 | 102

As a working copy, some entries already given:
Fields: MenB inh | MbtI inh | PV pol inh | PV pol inh intensity
Cc1cccc(NC(=O)c2cc3ccccc3oc2=O)c1
  -13 | . | 105 | 102
Cc1cc(=O)n2c(c1C#N)SC1CCCCC12O (stereo not drawn)
  -4 | -3 | 104 | 102

Pulled one by one from above (three):
Fields: MenB inh | MbtI inh | PV pol inh | PV pol inh intensity
O=C(Nc1ccc2nc(CN3CCCCC3)[nH]c2c1)c1cccs1
  -48 | 15 | 103 | 97
O=C(COC(=O)Cc1ccc(Cl)cc1Cl)NC1CCCCC1
  . | -8 | 101 | 105
COc1cc(C2c3c(oc4ccccc4c3=O)C(=O)N2CCCOC(C)C)cc(Br)c1O (stereo not drawn)
  16 | -11 | 100 | 104

Molecules above containing a furan ring, fused or not, in the order listed:
Fields: MenB inh | MbtI inh | PV pol inh | PV pol inh intensity
CC(C)CN1C(=O)CSC1c1cn(-c2ccccc2)nc1-c1cc2ccccc2o1 (stereo not drawn)
  -38 | 102 | 101 | 94
Cc1ccc(C(=O)NC2CCOc3ccccc32)o1 (stereo not drawn)
  -21 | 0 | 105 | 88
CC(=O)Nc1ccc2c(CSc3nnc(-c4ccoc4C)n3-c3ccccc3)cc(=O)oc2c1
  -4 | 90 | 98 | 104
CCOC(=O)c1oc2ccccc2c1COC(=O)c1cccs1
  3 | -5 | 99 | 100

(cont.)
Fields: MenB inh | MbtI inh | PV pol inh | PV pol inh intensity
CCCN1CNc2c(c(=O)n(C)c(=O)n2C)C1
  -6 | -5 | 102 | 102
O=C(O)/C=C/Sc1ccccc1
  -1 | 9 | 101 | 106
CCOC(=O)c1cc(-c2ccccc2)sc1NC(=O)COC(=O)C1CC(=O)N(Cc2ccco2)C1 (stereo not drawn)
  0 | 5 | 102 | 107
CC(=O)Nc1ccc(Oc2ccccc2)cc1
  -3 | -15 | 102 | 105
O=C(CSCc1ccc(F)cc1)NC1CCCCC1
  2 | 0 | 102 | 106
CCCn1c(SCC(=O)NCc2ccc(Cl)cc2)n[nH]c1=O
  1 | -7 | 103 | 106
Cc1onc(-c2c(Cl)cccc2Cl)c1CSc1nncn1C(C)(C)C
  -4 | -8 | 95 | 96
O=C(CCN1CCc2ccccc2C1)Nc1ccc(F)c(F)c1
  4 | -10 | 98 | 103
O=S1NN(c2ccccc2)S(=O)NN1c1ccccc1 (stereo not drawn)
  -68 | 7 | 72* | 67*
Cc1c(-c2csc(-c3ccc4c(c3)OCCO4)n2)cnn1-c1ccccc1
  -26 | 45 | 102 | 107
COc1ccc(CN(CCC(c2ccc3c(c2)OCO3)c2ccccc2OC)C(=O)c2ccco2)cc1 (stereo not drawn)
  -42 | -6 | 99 | 96
CS(=O)(=O)N(CC(=O)N1CCCC1)c1ccc2c(c1)OCO2
  -60 | -4 | 103 | 105
CCCN=Cc1c(O)n(C2CCCCC2)c(=O)n(C2CCCCC2)c1=O
  -21 | -14 | 103 | 105
O=C1CC(c2ccccc2)N(c2cccc(C(F)(F)F)c2)C(=S)N1 (stereo not drawn)
  9 | -4 | 103 | 105
Cc1ccc(-n2nc(C)c3c(C)c(CCC(=O)NCC4CCN(C5CCCC5)C4)c(C)nc32)cc1C (stereo not drawn)
  -10 | -28 | 102 | 107
CCNC(=O)CC1C(=O)N(CC)C(=S)N1NC(=O)c1ccccc1 (stereo not drawn)
  -4 | 37 | 103 | 107
Cc1nn(-c2ccccc2)c2sc(C(=O)OCN3C(=O)c4ccccc4C3=O)cc12
  1 | 4 | 101 | 106
Oc1ccc2c3c1O[C@H]1[C@@H](O)CC[C@@]4(O)[C@@H](C2)N(CC2CCC2)CC[C@]314
  1 | 1 | 102 | 104
CCOC(=O)c1csc(-c2cn(-c3ccccc3)c(=O)n(C)c2=O)n1
  -7 | 38 | 104 | 106
CCOC(=O)c1nn(-c2ccc(Cl)cc2)c(=N)c2c(N)c(C#N)c(N)nc12
  -18 | . | 78 | 140
Cc1ccc(Cn2nc(C)c3cc(C(=O)NC4=NCCS4)sc32)cc1
  -31 | 88 | 107 | 111
CC(C(=O)N1CCc2ccccc21)n1sc2ccccc2c1=O (stereo not drawn)
  6 | 0 | 101 | 104
Cc1cc(C(C)(C)C)oc1C(=O)N(CC(=O)NC1CCCC1)c1ccc(F)cc1
  13 | -7 | 103 | 101
